Mtb growth = M. tuberculosis H37Rv growth inhibitors, H37Rv strain (AID 1626) | M. tuberculosis H37Rv growth inhibition; higher % means a stronger effect | one-dose inhibition, % at 10 µM; IC50 in µM for titrated hits | 220,000 tested, 0.95% active;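 active means confirmed in a dose series; inconclusive means inhibition above 80% but not taken into the dose series; inactive means below 80% or under 30% at every dose of the series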;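 further: bacteria incubated seven days before Alamar blue readout; 0% = bacteria only wells and 100% = bacteria with antibiotic wells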
Mtb bLac sens = beta-lactam sensitization of Mtb H37Rv | M. tuberculosis H37Rv growth with meropenem, percent inhibition; hits of this screen are not shown here | inhibition, % at 25 µM | 330,000 tested, 0.27% active;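 active means about 74% or more and at least 40 points above the plate without the antibiotic, then above 30% in a dose series; inconclusive means first-round hits that could not be retested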;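 further: growth measured after seven days incubation then overnight dye step; 0% = bacteria only wells and 100% = bacteria with antibiotic; twin plates without the antibiotic show which effects depend on it; some results filed as inactive read as strong as hits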
YopH PTP inh = blocks Yersinia enterocolitica YopH tyrosine phosphatase. fluorescence Ex485/Em525. inhibition, %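 (about 10 µM by stock and volumes)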. 140,000 tested, 0.16% active;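 active means inhibition of 50% or more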;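 further: controls were vehicle for no effect and minimum signal wells for full effect; inactives centre near -20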
Arbovirus inh = blocks arbovirus infection. arbovirus infection cell-based antiviral screen. inhibition, % at 10 µM. 200,000 tested, 0.37% active. AID 1251;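 active means inhibition from about 30%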;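 further: bluetongue infection of BSR cells; cell survival read as ATP light after 72 h; 0% = infected wells without compound and 100% = uninfected wells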
RecA splice inh = inhibitors of M. tuberculosis RecA intein splicing | inhibition, %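 (about 9 µM by stock and volumes)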 | 290,000 tested, 0.75% active | cell-free RecA intein splicing, fluorescence; in the data active means inhibition above about 30%; inconclusive means no clear call, values can overlap the other calls;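 further: 0% = vehicle wells and 100% = reference inhibitor control wells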
Target sequence (P9WHJ3 whole entry, looked up, canonical isoform): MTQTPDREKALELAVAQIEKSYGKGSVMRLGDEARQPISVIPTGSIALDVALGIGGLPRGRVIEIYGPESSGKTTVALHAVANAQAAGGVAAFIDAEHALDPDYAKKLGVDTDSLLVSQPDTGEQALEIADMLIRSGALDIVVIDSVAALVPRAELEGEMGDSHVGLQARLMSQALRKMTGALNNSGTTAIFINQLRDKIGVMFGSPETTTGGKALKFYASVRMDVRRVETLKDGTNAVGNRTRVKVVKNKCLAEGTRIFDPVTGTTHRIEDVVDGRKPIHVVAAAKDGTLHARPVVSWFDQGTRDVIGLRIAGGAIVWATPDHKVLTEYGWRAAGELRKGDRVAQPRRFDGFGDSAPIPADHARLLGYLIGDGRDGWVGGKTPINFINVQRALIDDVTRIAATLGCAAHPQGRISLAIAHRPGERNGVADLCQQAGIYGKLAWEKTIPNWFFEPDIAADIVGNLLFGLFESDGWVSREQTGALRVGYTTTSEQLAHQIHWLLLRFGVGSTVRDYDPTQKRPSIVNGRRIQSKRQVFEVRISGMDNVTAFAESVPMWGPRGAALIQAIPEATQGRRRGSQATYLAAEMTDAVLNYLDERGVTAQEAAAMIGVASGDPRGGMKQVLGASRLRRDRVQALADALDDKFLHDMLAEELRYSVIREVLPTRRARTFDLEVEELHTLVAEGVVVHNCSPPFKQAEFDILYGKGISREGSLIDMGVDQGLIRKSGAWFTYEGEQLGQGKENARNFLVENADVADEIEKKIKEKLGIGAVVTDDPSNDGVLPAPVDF
Arbovirus inh repeat = recorded beside Arbovirus inh, whose call it bears; inhibition, %; measured here: 10K subset replicate screen; many hits read low in the repeat;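 first of two repeat runs on a subset; 0% = infected and 100% = uninfected wells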
Starred values were filed as active, the others as inactive; ? = inconclusive; / = not tested or not shown.

SMILES	Mtb growth	Mtb bLac sens	YopH PTP inh	Arbovirus inh	RecA splice inh	others
CC(NC(=O)[C@H](C)NC(=O)[C@@H]1CSC2c3ccccc3C(=O)N21)c1ccccc1 (stereo partly specified)	/	2	/	/	1.2
CCOC(=O)C(=O)Nc1cccc(C(=O)OCC)c1	-6%	2	-15	4	-1.8
O=C(c1cccc(Cl)c1)N1CCN(Cc2ccccc2F)CC1	-3%	91	10	4	-1.3
CC(C)CCNC(=O)[C@@H](NC(=O)c1c(F)cccc1F)C(C)C	-5%	-1	-12	3	-2.1
Cc1ccc(S(=O)(=O)N(C)CC(=O)Oc2ccc(-c3nnco3)cc2)cc1	/	0	/	/	22
CCN(C(=O)CSc1nc2cc(Cl)ccc2c(=O)n1Cc1ccco1)C1CCS(=O)(=O)C1 (stereo unspecified)	4%	-12	/	2	-0.4
O=C(CCC(=O)OCC(=O)c1ccc(C(F)(F)F)cc1)OCC(=O)c1ccc(C(F)(F)F)cc1	-2%	20	/	/	-0.7
FC(F)(F)c1cccc(Cn2nnnc2-c2ccc(Cl)cc2)c1	2%	-4	-31	6	/
O=C(CCN1C(=O)COc2ccccc21)N1CCC2(CC1)OCCO2	-3%	6	-52	0	4.7
O=C1CC(c2ccccc2)SC(N(c2ccccc2)c2ccccc2)=N1 (stereo unspecified)	3%	-6	-14	-1	-1.9
CCc1ccc2[nH]c(=O)c(CN(CCCN3CCOCC3)C(=O)Nc3ccccc3)cc2c1	5%	-8	-2	13	2.7
CCn1cc(CN2CCc3c([nH]c4ccccc34)C2c2ccc(F)c(OC)c2)c(C)n1 (stereo unspecified)	-4%	49	/	-20	-8.7
CN(CCCNC(=O)C1CCN(S(=O)(=O)c2cccc3nsnc23)CC1)Cc1ccccc1	-2%	-5	-25	-4	-3.1
O=C(C[n+]1ccccc1)N/N=C/c1ccccc1[N+](=O)[O-]	2%	2	/	3	-1.4
CCOC(=O)N1CCN(Cc2nc3ccc([N+](=O)[O-])cc3c(=O)n2-c2ccc(OC)cc2OC)CC1	/	7	/	/	0.6

The last three records of the part before open the next one.
SMILES	Mtb growth	Mtb bLac sens	YopH PTP inh	Arbovirus inh	RecA splice inh	others
CN(CCCNC(=O)C1CCN(S(=O)(=O)c2cccc3nsnc23)CC1)Cc1ccccc1	-2%	-5	-25	-4	-3.1
O=C(C[n+]1ccccc1)N/N=C/c1ccccc1[N+](=O)[O-]	2%	2	/	3	-1.4
CCOC(=O)N1CCN(Cc2nc3ccc([N+](=O)[O-])cc3c(=O)n2-c2ccc(OC)cc2OC)CC1	/	7	/	/	0.6
CCCCN(C)C(=O)c1nc2ccccn2c1CN1CCN(C(=O)c2cccs2)CC1	3%	1	/	4	-0.4
O=C(CN1C(=O)NC2(CCCC2)C1=O)NNC(=O)c1ccccc1	/	-4	/	/	-0.6
CCCCn1c(/N=C/c2c[nH]c3ccccc23)nc2ccccc21	9%	-6	17	-30	2.1
COc1ccccc1Oc1ccccc1C(=O)O	10%	0	0	-4	0.4
C[C@H](NC(=O)Nc1cccc(Br)c1)C(=O)O	-8%	0	/	/	1.9
CC(=O)N1CCOc2ccc(S(=O)(=O)Nc3ccc(C)cn3)cc21	/	-3	/	/	0.7
Cc1c(N2C(=O)CSC2c2ccco2)c(=O)n(-c2ccccc2)n1C (stereo unspecified)	-8%	1	/	/	-0.9
Cc1[nH]c(C)c2c(=O)[nH]ncc12	-4%	-11	/	/	-0.8
COCCN1C(=O)C(=O)/C(=C(/O)c2cccc(OC)c2)C1c1ccc(C)o1 (stereo unspecified)	7%	0	5	5	-6.8
Cc1ccc(CNC(=O)C2CC(c3ccccc3[N+](=O)[O-])=NO2)cc1 (stereo unspecified)	13%	-1	-11	-4	0.2
Cc1ccc(C(=O)Nc2cccc(NC(=O)c3cccs3)c2)c(C)c1	/	4	/	/	15
O=C(NCc1ccc2c(c1)OCO2)c1ccc(NC(=O)C2CCCO2)cc1 (stereo unspecified)	10%	?	-9	0	-4.2	Arbovirus inh repeat=1
COC(=O)C(Cc1ccccc1)NCC(=O)Nc1cccc(Cl)c1C (stereo unspecified)	/	-2	/	/	2.9
O=C(CN1C(=O)NC2(CCOc3ccccc32)C1=O)c1ccc(F)c(F)c1 (stereo unspecified)	/	-9	/	/	1.4
CC1CN(CCCCN2C(=O)c3ccccc3C2=O)CC(C)O1 (stereo unspecified)	0%	-3	/	13	0.4
COc1ccc(C)cc1NC(=O)N1CCC2(CC1)OCCO2	0%	-8	/	3	0.8
Cc1cc(C)cc(C(=O)NC(=S)Nc2ccc(Cc3ccncc3)cc2)c1	3%	55	-25	-15	2.8
CCn1nc(C(=O)NNC(=O)COc2ccccc2C)c2ccccc2c1=O	-1%	2	-13	-7	5.8
Cc1cccc(N2CC(C(=O)Nc3ccc(S(=O)(=O)Nc4nccs4)cc3)CC2=O)c1C (stereo unspecified)	/	60	/	/	-1.4
O=c1[nH]nc(Cc2ccccc2)c2ccccc12	-7%	8	3	-8	-6.1
N#C/C(=C\c1ccc(OCc2ccccc2)cc1)C(=O)Nc1ccc(C(=O)O)cc1	/	7	/	/	-4.7
CCn1nc(C)cc1C(=O)N1CCCC(C(=O)c2ccccc2SC)C1 (stereo unspecified)	/	1	/	/	1.1
O=C(C1=C[C@@H]2[C@H]3C(=O)N(c4ccccc4)C(=O)[C@H]3[C@@H](C(=O)c3ccc(Cl)cc3)N2C=C1)c1ccccc1	3%	3	-9	-10	3.8
O=C(COC(=O)c1cccs1)c1ccccc1	10%	70	-18	-6	1.5
COc1ccc(OC)c(NS(=O)(=O)c2ccc(-c3coc(C)n3)cc2)c1	/	8	/	/	1.2
Cc1ccccc1C(=O)NCCCn1ccnc1	/	-4	/	/	1.7
CCN1CCN(CCNC(=O)Nc2ccc([N+](=O)[O-])cc2)CC1	0%	-11	/	7	0.0
COc1ccc(NC(=S)N2CCN(C/C=C/c3ccccc3)CC2)cc1	3%	-5	-32	3	4.5
Cc1ccc2c(c1)C1CN(C)CCC1N2CC(=O)N(C)c1ccccc1 (stereo unspecified)	10%	10	-14	1	0.3
COc1ccc(CCNC(=O)c2ccc(CS(=O)(=O)c3ccc(Cl)cc3)o2)cc1OC	-2%	-5	-13	13	0.8

3 compounds from above, sorted by number of heavy atoms, high to low.
SMILES	Mtb growth	Mtb bLac sens	YopH PTP inh	Arbovirus inh	RecA splice inh	others
CCN1CCN(CCNC(=O)Nc2ccc([N+](=O)[O-])cc2)CC1	0%	-11	/	7	0.0
O=c1[nH]nc(Cc2ccccc2)c2ccccc12	-7%	8	3	-8	-6.1
O=C(COC(=O)c1cccs1)c1ccccc1	10%	70	-18	-6	1.5

(next part)
SMILES	Mtb growth	Mtb bLac sens	YopH PTP inh	Arbovirus inh	RecA splice inh	others
Cc1[nH]c2ccccc2c1SCC(=O)N1CCCCC1	-4%	-1	/	-8	-5.7
Cc1cc(C)n(/N=C/c2c[nH]c3ccccc23)c(=O)c1C#N	-5%	8	-17	2	3.5
O=C(NCc1ccccn1)Nc1ccccc1C(F)(F)F	/	-3	/	/	0.2
COc1ccc2[nH]c(C)c(C(=O)CN3CCN(C/C=C/c4ccccc4)CC3)c2c1	-2%	-5	-23	6	2.3
COc1ccc(Cl)cc1NC(=S)N1CCCC1	0%	-1	/	1	-1.5
CC[C@@H]1[C@H]2CCCC(=O)N3CC[C@@H](C[C@H]1O)[C@@H]23	-6%	-18	/	/	0.3
COc1ccc(CCn2c(O)c(C3=c4ccccc4=NC3=O)sc2=S)cc1OC	/	-2	/	/	0.8
NNc1nc(-c2ccccc2)nc2sc3c(c12)CCCC3	11%	7	-24	-8	-3.9
O=C(COc1ccccc1)c1cn(CC(=O)N2CCCC2)c2ccccc12	-2%	-5	/	-4	-5.8
Nc1nc(-c2ccccc2)cs1	57%	97	-3	-1	5.7
Cc1ccccc1NC(=O)NCC1CCN(Cc2cccc(Cl)c2)CC1	/	5	/	/	2.2
OCC[C@@H]1C[C@@H](O)[C@H](O)[C@]2(OCCCc3ccccc32)O1	/	-4	/	/	-3.1
COC(=O)Cn1c(=NC(=O)C(C)C)sc2c(C)cc(C)cc21	-2%	2	-17	2	-0.4
CCOc1ccccc1N(CC(=O)NC1CCCCC1)C(=O)c1nsc(Cl)c1Cl	3%	-10	/	23	7.4
O=C(CCc1ccccn1)N1CCCC(N2CCN(c3cccc(C(F)(F)F)c3)CC2)C1 (stereo unspecified)	/	-7	/	/	2.1
CCOCCCN(C)C1CCN(C(=O)c2oc3ccccc3c2NC(=O)Cc2ccc([N+](=O)[O-])cc2)CC1	/	6	/	/	5.7
O=C(CC1SC(N2CCCCC2)=NC1=O)Nc1cccc(C(F)(F)F)c1 (stereo unspecified)	-1%	-9	-39	4	-1.0
COc1ccc(CC(=O)NCC(=O)N/N=C/c2c[nH]c3ccccc23)cc1	/	9	/	/	-1.6
CC(=C\c1ccco1)/C=C(\C#N)C(=O)NCCc1c[nH]c2ccccc12	15%	-3	-16	-4	4.9
COc1ccc(C(C)=O)cc1CC(=O)NCCCn1ccnc1	/	-2	/	/	-1.0
CSCC[C@H](NC(=O)[C@H](Cc1ccccc1)n1c(=O)[nH]c2ccccc2c1=O)C(=O)N1CCC[C@H]1C(=O)O	/	-1	/	/	-0.2
CN1c2ccccc2C(O)=C(C(=O)Nc2ccccc2)S1(=O)=O	-2%	6	-29	1	4.0
CCN(CC)S(=O)(=O)c1ccc(N2CCOCC2)c(NC(=O)CC23CC4CC(CC(Br)(C4)C2)C3)c1	-3%	4	-22	-4	8.4
Cc1ccc(NC(=O)CN2C(=O)COc3ccc(S(=O)(=O)N4CCCC4)cc32)c(C)c1	/	4	/	/	-0.2
Cc1cc(N2CCCCCC2)n2nc(C)c(-c3ccccc3)c2n1	/	7	/	/	-2.4
CNC(=O)/C(C#N)=c1\s/c(=C/C(=O)OC)c(=O)n1-c1ccccc1	-5%	-8	-19	2	5.6
CCOC(=O)c1sc(NC(=O)CN2C(=O)NC3(CC(C)CC(C)(C)C3)C2=O)c(C(=O)OCC)c1C (stereo unspecified)	17%	7	-21	-4	0.3
O=C(COC(=O)c1ccc(O)cc1)NCc1ccc2c(c1)OCO2	17%	1	/	2	2.1
O=C(O)CCCn1cc(NC(=O)COc2ccc(F)cc2F)cn1	/	-4	/	/	0.1
COc1ccc(NC(=O)c2cc(-c3ccc(C)o3)nc3ccccc23)c(OC)c1	/	-2	/	/	1.5
Cc1ccc(Nc2ncnc3c2oc2ccccc23)cc1	/	6	-8	7	-1.5
COc1ccccc1C(=O)NNC(=S)NC(=O)c1cc(OC)c(OC)c(OC)c1	?	99	/	-19	10
O=C(CSc1ncnc2c1oc1ccccc12)c1cccs1	/	-2	3	2	-1.0
Cc1cccc(C)c1NCc1n[nH]c(=S)n1-c1ccccc1	6%	5	/	1	1.0
Cc1cc(C#N)c(C)c(SCc2[nH]nc3c2C(c2ccccc2)C(C#N)=C(N)O3)n1 (stereo unspecified)	0%	-8	-65	-1	25
O=C(COC(=O)CSc1nnc(-c2ccc(Cl)cc2)o1)NCc1ccc2c(c1)OCO2	4%	50	-8	-7	6.1
CC1CCN(C(=S)c2ccc3c(c2)OCO3)CC1	-3%	-2	-5	5	-3.6
COc1cc(OC)cc(C(=O)NCCSCc2ccco2)c1	2%	/	-33	3	2.2
O=c1nc(Nc2ccc([N+](=O)[O-])cc2)[nH]c(=O)[nH]1	/	-7	/	/	0.9
Cc1ccc(SCCNC(=O)C(CO)(CO)CO)cc1	-3%	-4	-18	1	2.7	Arbovirus inh repeat=6
CC(=O)c1ccc(OCCCC(=O)NC2CCC(C)CC2)cc1 (stereo unspecified)	/	4	/	/	-1.5
CCN(Cc1ccccc1)C(=O)COc1cc(=O)n(CC)c2ccccc12	-2%	?	-35	-16	4.6
O=C(c1cc(Cl)ccc1OCc1ccccc1)N1CCOCC1	/	-7	/	/	1.8
CCC1=Nc2cc(C(=O)NCc3ccco3)ccc2Sc2ccc(Cl)cc21	64%	-4	-40	-10	8.3
O=C(CCC1CCCCC1)NCc1cccs1	7%	1	-10	-2	3.4

Random excerpt: 2 compounds from above.
SMILES	Mtb growth	Mtb bLac sens	YopH PTP inh	Arbovirus inh	RecA splice inh	others
COc1ccc(NC(=S)N2CCN(C/C=C/c3ccccc3)CC2)cc1	3%	-5	-32	3	4.5
COCCN1C(=O)C(=O)/C(=C(/O)c2cccc(OC)c2)C1c1ccc(C)o1 (stereo unspecified)	7%	0	5	5	-6.8

Remaining list, next part.
SMILES	Mtb growth	Mtb bLac sens	YopH PTP inh	Arbovirus inh	RecA splice inh	others
O=C(O)c1cc(/C=C/c2ccc(N3CCOCC3)cc2)nc2ccccc12	1%	9	/	-9	-0.7
Brc1ccc(-c2noc3c2-c2nc(C4CCCCC4)sc2CC3)cc1	-11%	-11	/	/	1.0
Cc1cc(CNC(=O)C2(C(F)(F)F)C/C(=C\Cc3ccccc3)CCCO2)nn1C (stereo unspecified)	-10%	-6	/	/	-1.6
OC1(c2cccs2)CN(c2ccc(Br)cc2)C2=[N+]1CCCS2 (stereo unspecified)	-3%	-6	/	/	2.2

The list is partial; the hit share may differ from the screen's.
